Compound activity deposited in PubChem BioAssay by several laboratories.
RecA intein inh = blocks M. tuberculosis RecA intein splicing. cell-free RecA intein splicing, fluorescence. inhibition, %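 (about 9 µM by stock and volumes)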. 290,000 tested, 0.75% active. AID 2221; in the data active means inhibition above about 30%; inconclusive means no clear call, values can overlap the other calls;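 further: 0% = vehicle wells and 100% = reference inhibitor control wells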
Target sequence (P9WHJ3 whole entry, looked up): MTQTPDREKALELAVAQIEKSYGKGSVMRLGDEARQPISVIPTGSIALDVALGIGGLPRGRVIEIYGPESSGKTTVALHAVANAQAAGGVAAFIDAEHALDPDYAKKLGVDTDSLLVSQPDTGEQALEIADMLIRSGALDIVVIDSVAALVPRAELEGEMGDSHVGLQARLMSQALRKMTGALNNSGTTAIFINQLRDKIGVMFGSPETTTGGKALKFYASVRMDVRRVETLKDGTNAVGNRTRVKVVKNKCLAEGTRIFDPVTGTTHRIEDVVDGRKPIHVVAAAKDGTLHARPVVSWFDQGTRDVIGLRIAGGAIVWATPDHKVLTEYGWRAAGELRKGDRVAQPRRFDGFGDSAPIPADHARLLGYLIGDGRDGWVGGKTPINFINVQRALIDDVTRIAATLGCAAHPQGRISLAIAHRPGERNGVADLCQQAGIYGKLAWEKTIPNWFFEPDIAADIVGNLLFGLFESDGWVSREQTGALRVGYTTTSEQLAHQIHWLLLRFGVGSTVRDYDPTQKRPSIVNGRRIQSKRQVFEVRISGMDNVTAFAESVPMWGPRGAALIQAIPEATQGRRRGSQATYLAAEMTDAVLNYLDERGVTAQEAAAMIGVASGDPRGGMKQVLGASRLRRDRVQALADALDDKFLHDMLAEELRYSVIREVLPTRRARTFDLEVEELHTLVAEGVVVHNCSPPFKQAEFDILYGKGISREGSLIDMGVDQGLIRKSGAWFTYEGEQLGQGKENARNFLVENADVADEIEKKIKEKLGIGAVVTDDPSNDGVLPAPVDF
Mtb growth = M. tuberculosis H37Rv growth inhibitors, H37Rv strain (AID 1626); 220,000 tested, 0.95% active; M. tuberculosis H37Rv growth inhibition; higher % means a stronger effect; inhibition, % at 10 µM, or IC50 in µM where a hit was titrated;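 active means confirmed in a dose series; inconclusive means inhibition above 80% but not taken into the dose series; inactive means below 80% or under 30% at every dose of the series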;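 further: bacteria incubated seven days before Alamar blue readout; 0% = bacteria only wells and 100% = bacteria with antibiotic wells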
Mtb betalactam = beta-lactam sensitization of Mtb H37Rv. inhibition, % at 25 µM. 330,000 tested, 0.27% active. AID 434955. M. tuberculosis H37Rv growth with meropenem, percent inhibition; hits of this screen are not shown here;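 active means about 74% or more and at least 40 points above the plate without the antibiotic, then above 30% in a dose series; inconclusive means first-round hits that could not be retested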;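 further: growth measured after seven days incubation then overnight dye step; 0% = bacteria only wells and 100% = bacteria with antibiotic; twin plates without the antibiotic show which effects depend on it; some results filed as inactive read as strong as hits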
YopH inh = inhibitors of Yersinia enterocolitica YopH tyrosine phosphatase; fluorescence Ex485/Em525; 140,000 tested, 0.16% active; inhibition, %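 (about 10 µM by stock and volumes)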;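 active means inhibition of 50% or more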;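 further: controls were vehicle for no effect and minimum signal wells for full effect; inactives centre near -20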
Arbovirus anti = blocks arbovirus infection; arbovirus infection cell-based antiviral screen; inhibition, % at 10 µM; 200,000 tested, 0.37% active; AID 1251;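 active means inhibition from about 30%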;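 further: bluetongue infection of BSR cells; cell survival read as ATP light after 72 h; 0% = infected wells without compound and 100% = uninfected wells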
Arbovirus anti repeat = further read-out of Arbovirus anti, marked with its call; inhibition, %; measured here: 10K subset replicate screen; many hits read low in the repeat;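 first of two repeat runs on a subset; 0% = infected and 100% = uninfected wells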
The depositor's hits bear a star; ? = inconclusive; . = no result given.

The opening 4 records as a preview:
SMILES | RecA intein inh | Mtb growth | Mtb betalactam | YopH inh | Arbovirus anti | others
COc1ccc2[nH]c(=O)c(CN(Cc3cccnc3)C(=O)Nc3ccccc3)cc2c1 | -1.2 | 2% | 2 | -9 | 0
CSc1cccc(NC(=O)CSc2ccc(C)cc2)c1 | -0.6 | 53% | 63 | -6 | 5
CC(C)c1c(C(=O)N/N=C/c2ccsc2)nnn1-c1nonc1N | 0.3 | . | -2 | . | .
S=c1nc(-c2ccccc2Br)[nH][nH]1 | -1.4 | 0% | -3 | -43 | 3

The listing, from the first entry:
SMILES | RecA intein inh | Mtb growth | Mtb betalactam | YopH inh | Arbovirus anti | others
COc1ccc2[nH]c(=O)c(CN(Cc3cccnc3)C(=O)Nc3ccccc3)cc2c1 | -1.2 | 2% | 2 | -9 | 0
CSc1cccc(NC(=O)CSc2ccc(C)cc2)c1 | -0.6 | 53% | 63 | -6 | 5
CC(C)c1c(C(=O)N/N=C/c2ccsc2)nnn1-c1nonc1N | 0.3 | . | -2 | . | .
S=c1nc(-c2ccccc2Br)[nH][nH]1 | -1.4 | 0% | -3 | -43 | 3
CCOc1ccc(C(=O)Nc2ccc(NC(=O)c3cccs3)cc2)cc1[N+](=O)[O-] | -0.8 | 2% | 6 | -15 | -9
C=CCNc1oc(Cc2cccc3ccccc23)nc1C#N | 7.4 | 14% | -8 | -43 | 2 | Arbovirus anti repeat=-7
COc1ccccc1CN1CCNC(=O)C1CC(=O)N(C)CC1CCOCC1 (stereo not given) | -5.5 | . | -4 | . | .
Fc1cccc(/C=C2\CCCC3=C2NC(=S)NC3c2cccc(F)c2)c1 (stereo not given) | 14 | 1% | 1 | . | .
CNC1=C([N+](=O)[O-])CC([N+](=O)[O-])=C(N2CCNCC2)N1C | 1.6 | 7% | 2 | . | 11
Cc1cc2cc(CNC(=O)c3ccc(Br)o3)ccc2[nH]1 | 12 | 14% | 62 | . | 6 | Arbovirus anti repeat=-4
CN(C)S(=O)(=O)c1cccc(NC(=S)N/N=C/C(c2ccccc2)c2ccccc2)c1 | -4.3 | 0% | 3 | 10 | 1
CC(C)(C)n1cnc2cc(NC(=O)c3ccccc3)ccc21 | 0.9 | . | 2 | . | .
Cc1cccc(NC(=S)NNC(=O)c2cccc([N+](=O)[O-])c2)c1 | -6.6 | -6% | -6 | . | .
O=C(NCc1ccccc1)c1onc(CSc2ccc(F)c(F)c2)c1C(=O)NCc1ccccc1 | -1.0 | 8% | 1 | . | .
Cn1c(S(=O)(=O)Cc2ccc(Cl)cc2)nc2ccccc21 | 3.3 | -6% | -5 | . | 0

Overlap with the part before: 2 compounds; new compounds follow.
SMILES | RecA intein inh | Mtb growth | Mtb betalactam | YopH inh | Arbovirus anti | others
O=C(NCc1ccccc1)c1onc(CSc2ccc(F)c(F)c2)c1C(=O)NCc1ccccc1 | -1.0 | 8% | 1 | . | .
Cn1c(S(=O)(=O)Cc2ccc(Cl)cc2)nc2ccccc21 | 3.3 | -6% | -5 | . | 0
CC(C)C(C(=O)O)N1C(=O)/C(=C/C=C/c2ccco2)SC1=S (stereo not given) | 13 | -8% | 0 | 22 | -5
OC(COc1ccc2ccccc2c1Br)Cn1ccnc1 (stereo not given) | 3.9 | ? | 98 | -8 | -20
C=CCn1c(=NC(=O)c2ccc(S(=O)(=O)N3CCCc4ccccc43)cc2)sc2cc(S(N)(=O)=O)ccc21 | 5.1 | 5% | 40 | -18 | -16
O=C(CN1CCc2ccccc2C1)Nc1ccc(F)cc1 | -0.3 | . | -1 | . | .
COc1ccc(CCNC2CCC(c3ccccc3)CC2)cc1 (stereo not given) | 0.4 | . | 0 | . | .
COc1ccc(C(=O)CN2C(=O)NC3(CCCCCC3)C2=O)c(OC)c1 | -3.4 | . | -6 | . | .
Cc1ccc(S(=O)(=O)N(CC(O)CN2CCCC2)c2ccccc2)cc1 (stereo not given) | 1.5 | -6% | 2 | -25 | -6
Cc1cc(C)[n+]2[nH]c(N)c(N=Nc3ccccc3)c2n1 | 0.5 | ? | 97 | . | .
Cc1ccccc1-c1nc(-c2ccc(Br)o2)no1 | 7.5 | . | 1 | . | .
Cc1ccc(NC(=O)C(=Cc2ccc(C(=O)O)cc2)C(=O)Nc2ccc(C)cc2C)c(C)c1 | 83* | 15% | 17 | . | .
CCc1nnc(NC(=O)CSc2nc3c(C)cccc3[nH]2)s1 | -0.9 | -2% | 5 | -39 | 11
COc1ccccc1-c1noc(-c2ccccc2C(=O)N2CCOCC2)n1 | -1.7 | -6% | 6 | 0 | 3
Cc1cccn2cc(CNc3ccccc3)nc12 | -2.2 | -2% | -6 | -10 | -3
COc1ccc(C(=O)OCCNC(=O)c2ccncc2)cc1OC | -4.5 | 4% | 8 | -28 | -4
NS(=O)(=O)c1ccc(CNC(=O)c2csc3c2CCCC3)cc1 | -0.3 | 8% | 4 | . | 3
CCNc1nc(NC(C)C)nc(SCCOc2ccc(C)cc2)n1 | 6.3 | 16% | 65 | -20 | -22
O=C(Nc1ccc(-c2cn3c(n2)SCC3)cc1)c1ccc2c(c1)OCO2 | -4.5 | 2% | 1 | . | -4
CC1(C)OC(=O)C(=CNC(CCC(N)=O)C(=O)O)C(=O)O1 (stereo not given) | 1.1 | -1% | -5 | -21 | 1
Brc1ccc(Oc2nnnn2-c2ccccc2)cc1 | 3.8 | 13% | -3 | . | 5 | Arbovirus anti repeat=-7
CCOC(=O)Cc1csc(NC(=O)CSc2nnc(-n3nc(C)cc3C)c3ccccc23)n1 | 10 | -3% | 0 | -42 | 4
O=C(N/C(=C/c1cccs1)C(=O)N1CCCC1)c1ccccc1 | 1.5 | . | 2 | . | .
CN1CCN(CC2(O)CCN(S(=O)(=O)c3ccc(Cl)cc3)CC2)CC1 | -2.6 | -2% | -5 | . | 2
CC(=O)c1cn(C)c(=O)c2ccccc12 | -4.4 | 3% | -9 | . | .
O=C1C2CCCN2C(c2ccco2)N1c1ccc(F)cc1 (stereo not given) | 1.1 | -3% | -9 | . | 0
Cc1ccc(C)c(NC(=S)N2CCC(c3nc4ccccc4s3)CC2)c1 | 4.4 | -2% | 27 | -36 | 8
COc1cc(C(O)P(=O)(OC(C)C)OC(C)C)cc(OC)c1OC (stereo not given) | -2.0 | -6% | -4 | -26 | -2
CCC(=O)c1cn(CC(=O)Nc2cccc(C)c2)c2ccccc12 | 0.9 | . | -3 | . | .
Cc1cc(C)cc(N(CC(=O)NC2CCC(C)CC2)S(=O)(=O)c2c(C)[nH]c(=O)[nH]c2=O)c1 (stereo not given) | . | 10% | -3 | . | .
CCCCn1c(N)c(N2CCOCC2)c(=O)n(CC(=O)NC(C)c2ccccc2)c1=O (stereo not given) | . | 6% | -1 | . | 0
O=C(NC(=S)Nc1ccccc1N1CCCC1)c1ccc(-c2cccc([N+](=O)[O-])c2)o1 | -3.9 | -3% | -2 | -6 | -9

For reference, 7 of the compounds above.
SMILES | RecA intein inh | Mtb growth | Mtb betalactam | YopH inh | Arbovirus anti | others
CCNc1nc(NC(C)C)nc(SCCOc2ccc(C)cc2)n1 | 6.3 | 16% | 65 | -20 | -22
O=C(Nc1ccc(-c2cn3c(n2)SCC3)cc1)c1ccc2c(c1)OCO2 | -4.5 | 2% | 1 | . | -4
CC1(C)OC(=O)C(=CNC(CCC(N)=O)C(=O)O)C(=O)O1 (stereo not given) | 1.1 | -1% | -5 | -21 | 1
Brc1ccc(Oc2nnnn2-c2ccccc2)cc1 | 3.8 | 13% | -3 | . | 5 | Arbovirus anti repeat=-7
CCOC(=O)Cc1csc(NC(=O)CSc2nnc(-n3nc(C)cc3C)c3ccccc23)n1 | 10 | -3% | 0 | -42 | 4
O=C(N/C(=C/c1cccs1)C(=O)N1CCCC1)c1ccccc1 | 1.5 | . | 2 | . | .
CN1CCN(CC2(O)CCN(S(=O)(=O)c3ccc(Cl)cc3)CC2)CC1 | -2.6 | -2% | -5 | . | 2

The list goes on.
SMILES | RecA intein inh | Mtb growth | Mtb betalactam | YopH inh | Arbovirus anti | others
Cc1cc(C)n(Cc2ccc(NC(=O)c3nn(C)cc3[N+](=O)[O-])cc2)n1 | -2.3 | -6% | -7 | -19 | -32
Cn1c(C(C#N)C2=C(Cl)C(=O)N(c3ccccc3)C2=O)nc2ccccc21 (stereo not given) | . | 4% | 3 | 4 | 6
COc1nc(NCC(C)C)nc(Oc2ccc(=O)n(-c3ccccc3)n2)n1 | -0.8 | 4% | 0 | -41 | 1
Cc1nn(CC(=O)Nc2ccc(C(=O)N3CCCC3)cc2)c(=O)c2ccccc12 | 0.6 | -4% | -14 | -10 | 4
O=C(CCN1C(=O)/C(=C/c2ccccc2F)SC1=S)NCCCn1ccnc1 | 20 | . | 9 | . | .
COCC(=O)N1CCC(Oc2ccc(C(=O)NC(C)c3csc(C)n3)cc2)CC1 (stereo not given) | -1.8 | . | -8 | . | .
CCOC(=O)C(NC(C)=O)(Nc1ccc(S(N)(=O)=O)cc1)C(F)(F)F (stereo not given) | 2.6 | 10% | 1 | -8 | 6
Cc1cc(NCc2ccc(F)cc2Cl)n2nnnc2n1 | -1.1 | 19% | -6 | -2 | 3
Cn1c(=O)c2ncn(CC(=O)N/N=C/c3ccco3)c2n(C)c1=O | -0.2 | -4% | 3 | -23 | -10
O=C(CN1CCCCCC1)Nc1cccc([N+](=O)[O-])c1 | -4.4 | 0% | 0 | . | -3
CCCn1c(=O)c2ccccc2n2c(SCCOc3ccccc3)nnc12 | 0.6 | 2% | -3 | -30 | -7
Cc1ccc(Cl)cc1NC(C#N)c1ccccc1 (stereo not given) | 7.8 | 2% | -10 | . | .
O=C(O)C1CCCCC1C(=O)NC(c1ccccc1)c1ccccc1 (stereo not given) | 4.2 | 2% | -10 | . | .
Oc1ccccc1N=Cc1c(O)ccc2ccccc12 | 12 | 40% | . | . | .
COc1cc(Cl)c(C)cc1NC(=O)COC(=O)C1=COCCO1 | -0.3 | . | 64 | . | .
COc1cccc(C(=S)N2CCCC2)c1OC | -0.7 | . | -6 | . | .
Cc1cccc2cc3c(nc12)SC(=NCC1CCCO1)N(Cc1ccco1)C3 (stereo not given) | 23 | 7% | 10 | -33 | -13
O=C(NCc1ccco1)Nc1ccc(Br)cc1 | -2.9 | 4% | 3 | -19 | -1 | Arbovirus anti repeat=1
COc1ccc(NC(=O)c2cccc(F)c2)cc1Cl | -1.1 | . | -13 | -26 | -3
Cc1ccc(C)c(C(C)NC(=S)NCc2ccc(F)cc2)c1 (stereo not given) | 8.2 | . | 10 | . | .
O=c1[nH]cnc2scc(-c3ccc(-c4ccccc4)cc3)c12 | -0.4 | -10% | 11 | -29 | 4
O=C(Nc1nc2ccccc2[nH]1)NC1CCCCC1 | -1.1 | . | 84 | . | .
COc1ccc(-c2nc(-c3ccc(Br)o3)no2)cc1 | 2.1 | 16% | 2 | -45 | 6
CCn1c(SCc2ccc([N+](=O)[O-])cc2)nnc1C(C)NC(=O)c1ccc(C)cc1 (stereo not given) | -1.3 | 2% | 20 | -16 | -7
CC(=O)c1ccc(NC(=O)/C(=C\c2cccs2)NC(=O)c2ccco2)cc1 | 1.4 | 6% | -6 | . | 4
CCOc1ccc(CC(=O)N2CCN=C2SCc2ccc([N+](=O)[O-])cc2)cc1 | 6.9 | 69% | -2 | . | -12
COc1ccc(S(=O)(=O)n2nc(C)cc2C)c(C)c1C | 2.6 | -4% | -3 | -23 | 11

These rows are one share of the data; rates above refer to the full screens.
